# Screening results as filed in PubChem.
# Mtb betalactam: beta-lactam sensitization of Mtb H37Rv | M. tuberculosis H37Rv growth with meropenem, percent inhibition; hits of this screen are not shown here | inhibition, % at 25 µM | hit rate 0.27% among 330,000 | AID 434955;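 active = about 74% or more and at least 40 points above the plate without the antibiotic, then above 30% in a dose series; inconclusive = first-round hits that could not be retested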;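 also: growth measured after seven days incubation then overnight dye step; 0% = bacteria only wells and 100% = bacteria with antibiotic; twin plates without the antibiotic show which effects depend on it; some results filed as inactive read as strong as hits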
# Arbovirus inh: antivirals against arbovirus infection; arbovirus infection cell-based antiviral screen; inhibition, % at 10 µM; hit rate 0.37% among 200,000; AID 1251;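 active = inhibition from about 30%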;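 also: bluetongue infection of BSR cells; cell survival read as ATP light after 72 h; 0% = infected wells without compound and 100% = uninfected wells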
# Mtb growth: M. tuberculosis H37Rv growth inhibitors, H37Rv strain (AID 1626); hit rate 0.95% among 220,000; M. tuberculosis H37Rv growth inhibition; higher % means a stronger effect; one-dose inhibition, % at 10 µM; IC50 in µM for titrated hits;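 active = confirmed in a dose series; inconclusive = inhibition above 80% but not taken into the dose series; inactive = below 80% or under 30% at every dose of the series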;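 also: bacteria incubated seven days before Alamar blue readout; 0% = bacteria only wells and 100% = bacteria with antibiotic wells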
# YopH inh: blocks Yersinia enterocolitica YopH tyrosine phosphatase; fluorescence Ex485/Em525; inhibition, %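 (about 10 µM by stock and volumes)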; hit rate 0.16% among 140,000; AID 898;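 active = inhibition of 50% or more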;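 also: controls were vehicle for no effect and minimum signal wells for full effect; inactives centre near -20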
# RecA splice inh: Mtb RecA intein splicing inhibition | hit rate 0.75% among 290,000 | P9WHJ3 | cell-free RecA intein splicing, fluorescence | inhibition, %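 (about 9 µM by stock and volumes)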; in the data active = inhibition above about 30%; inconclusive = no clear call, values can overlap the other calls;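 also: 0% = vehicle wells and 100% = reference inhibitor control wells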
# Target sequence (P9WHJ3 whole entry, looked up, canonical isoform): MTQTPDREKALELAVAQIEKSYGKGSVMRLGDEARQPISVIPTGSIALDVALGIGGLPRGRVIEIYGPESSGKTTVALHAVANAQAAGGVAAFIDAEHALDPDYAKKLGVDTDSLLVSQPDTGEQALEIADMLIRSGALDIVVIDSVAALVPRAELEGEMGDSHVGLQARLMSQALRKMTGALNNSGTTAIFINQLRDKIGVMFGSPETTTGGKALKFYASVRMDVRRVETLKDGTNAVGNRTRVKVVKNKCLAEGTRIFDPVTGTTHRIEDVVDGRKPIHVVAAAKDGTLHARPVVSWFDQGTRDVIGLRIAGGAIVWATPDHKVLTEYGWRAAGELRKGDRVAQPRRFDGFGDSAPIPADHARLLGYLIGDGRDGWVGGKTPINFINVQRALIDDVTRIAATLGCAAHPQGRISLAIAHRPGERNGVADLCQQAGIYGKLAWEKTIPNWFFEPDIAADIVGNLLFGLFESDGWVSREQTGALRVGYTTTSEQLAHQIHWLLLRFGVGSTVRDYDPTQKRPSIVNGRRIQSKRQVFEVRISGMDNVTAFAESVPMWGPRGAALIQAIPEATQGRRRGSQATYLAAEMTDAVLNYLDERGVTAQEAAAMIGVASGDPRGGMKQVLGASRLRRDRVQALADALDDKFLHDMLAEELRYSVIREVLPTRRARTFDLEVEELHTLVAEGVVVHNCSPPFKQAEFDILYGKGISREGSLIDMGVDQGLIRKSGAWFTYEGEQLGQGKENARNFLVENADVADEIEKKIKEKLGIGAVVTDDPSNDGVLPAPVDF
# * hit, by the source's call; ? = inconclusive; · = no result given. A portion of the library. The share of hits here may be higher or lower than overall.
# Below each SMILES: Mtb betalactam	Arbovirus inh	Mtb growth	YopH inh	RecA splice inh
1) O=c1c2ccccc2nc(CSc2ncnc3nc[nH]c23)n1-c1ccc(Cl)c(Cl)c1
    -3	-1	8%	-43	0.1
2) CC(Cc1ccccc1)NC(=O)c1cc2ccccc2o1 (centres undefined)
    1	·	·	·	2.3
3) O=C(Nc1cc(Cl)ncn1)c1ccccc1
    -5	·	·	·	0.4
4) CCCCCOCC1CC(C/C(C)=N/Nc2nc(-c3ccccc3)cs2)C(=O)O1 (centres undefined)
    41	7	2%	-24	-0.8
5) COc1ccc(/C=C2\SC(N)=NC2=O)cc1
    3	·	·	·	-0.7
6) O=C(COCc1ccccc1)N[C@@H](Cc1ccc(O)cc1)C(=O)O
    -2	4	9%	·	-1.5
7) COc1ccc(OC)c(S(=O)(=O)NCc2cc(-c3ccccc3)no2)c1
    -7	·	·	·	2.1
8) COCCN(Cc1ccccc1)C(=O)c1cc(-c2ccc(OC)c(OC)c2)nc2ccccc12
    8	·	·	·	7.0
9) CC(=O)N1CCC(N(CCN2CCOCC2)C(=S)Nc2cc(C)ccc2C)CC1
    1	8	5%	3	12
10) NC(=O)N/N=C/c1c(F)cccc1F
    3	7	-5%	-32	-2.2
11) Cc1ccc(S(=O)(=O)N(C)C)cc1NC(=O)c1cc(=O)c2ccccc2o1
    -8	·	·	·	0.3
12) N=c1c(C(=O)NC2CCCC2)cc2c(=O)n3ccccc3nc2n1CCCN1CCOCC1
    -7	·	·	·	-108
13) CC1CCCCC1NC(=O)/C(C#N)=C/C=C/c1ccccc1[N+](=O)[O-] (centres undefined)
    10	-27	4%	·	12
14) COc1ccc(OC)c(N(CC(=O)Nc2ccc(NC(C)=O)cc2)S(C)(=O)=O)c1
    -1	0	-3%	33	5.4
15) CCN(CC)S(=O)(=O)c1ccc2oc(Nc3ccc(OC)cc3)nc2c1
    9	·	·	·	-0.8
16) Cc1ccc2nc(Nc3ccc4[nH]c(=O)[nH]c4c3)c(-n3nc(C)cc3C)nc2c1
    52	-42	64%	-29	-5.6
17) CC(=O)/C=C1\N(C)c2ccc(C)cc2C1(C)C
    -2	15	-5%	·	-1.4
18) O=C(O)CCNc1ccc(NCCC(=O)O)c2c1C(=O)c1ccccc1C2=O
    -3	·	·	·	17
19) O=c1[nH]c(CN2CCN(C/C=C/c3ccccc3)CC2)nc2ccccc12
    -4	-7	-10%	-24	1.1
20) CCOC(CNc1ncnc2c1cnn2C)OCC
    7	-1	4%	·	-2.4
21) Cc1ccc(CCNC(=O)CCn2c(=O)c3cccn3c3ccc(F)cc32)cc1
    5	·	·	·	5.3
22) CCc1ccc(N(CC(=O)NC(C)(C)CC)C(=O)CCC(=O)Nc2nccs2)cc1
    -1	·	·	·	-3.7
23) O=C(NCCCN1CCCC1)c1ccc(CS(=O)(=O)c2c(Cl)cccc2Cl)o1
    -11	·	·	·	-0.1
24) Cc1cc(-c2ccccc2)c2c3c(cn2n1)c(=O)n(C)c(=O)n3C
    -10	-8	-4%	-14	-1.2
25) CCOC(=O)c1sc(NC(=O)CSC(=S)N2CCOCC2)nc1C
    22	·	1%	·	·
26) Cc1cn(-c2cc(C(=O)Nc3ccc(C)c(NC(=O)N4CCNC4=O)c3)cc(C(F)(F)F)c2)cn1
    -6	·	-15%	·	1.8
27) CCOc1ccc(C(=O)NCC(c2cccs2)N(C)C)cc1 (centres undefined)
    -3	-4	-1%	-31	0.4
28) O=C(NNC1=Nc2cccc3cccc1c23)c1ccccc1Br
    7	-6	?	-16	-3.7
29) N#CC(C#N)=C1NC(N)=C(C#N)C(c2ccccc2)=C1C#N
    -3	·	·	·	-22
30) Cc1cc(OC(=O)c2ccc(OC(C)C)cc2)c([N+](=O)[O-])c(=O)[nH]1
    2	·	·	·	-4.0
31) CC(=O)c1c(C)[nH]c(=S)c(C#N)c1-c1ccc(F)cc1
    -1	·	5%	·	5.1
32) C/C(=N\NC(=O)c1ccco1)c1ccc(C(=O)O)s1
    -12	·	·	·	-1.0
33) COc1cccc(C(=O)Nc2nnc(C3CCCO3)s2)c1 (centres undefined)
    -7	10	3%	-17	-49
34) COc1ccc(NC(=O)CCC(=O)N/N=C/c2ccc([N+](=O)[O-])s2)cc1
    100	-14	?	34	-0.1
35) COc1cc(C2C(C#N)=C(C)NC3=C2C(=O)CC(C)(C)C3)ccc1O (centres undefined)
    -3	11	-1%	-19	·
36) O=C(Nc1ccnn1C1CCN(Cc2ccc(CO)o2)CC1)c1ccccc1
    2	·	·	·	-1.2
37) CC(=O)N1CCC2(CC1)NC(=O)N(c1ccccc1)N2
    90	-31	?	·	-2.5
38) CCOc1cc(C(=O)CCC(=O)OCC(=O)NC(=O)NCC(C)C)ccc1O
    -5	·	-5%	·	-4.2
39) Cc1nn(C)cc1/C=C1/CC2C3CC=C4CC(O)CCC4(C)C3CCC2(C)C1=O (centres undefined)
    -1	·	-8%	37	4.2
40) Cc1ccc(-n2c(N)cc(=O)nc2SCC(=O)NC2CCCCC2)cc1C
    -11	·	·	·	0.0
41) Cc1ccc(S(=O)(=O)N2CCCCC2)cc1NC(=O)c1ccc2c(=O)n3c(nc2c1)CCCCC3
    9	-8	0%	-2	3.4
42) O=[N+]([O-])c1cc(/C=N/Nc2nc(N3CCOCC3)nc(N3CCOCC3)n2)ccc1Cl
    -1	1	-1%	-27	-2.0
43) S=C(NCc1ccccc1)Nc1cccc2cnccc12
    -3	·	·	·	1.3
44) S=c1nc[nH]c2c1sc1nc(N3CCOCC3)c3c(c12)CCCC3
    -2	16	3%	·	1.8
45) CCOC(=O)C1CCCN(C(=O)c2cn(C)c3ccc(S(=O)(=O)N4CCCC4)cc3c2=O)C1 (centres undefined)
    -7	6	-2%	-26	·
46) CN(CCOc1ccccc1)CCOc1ccccc1
    2	·	·	·	-0.9
47) CCCOC(=O)Cn1c(=O)c2cc3c(=O)n(CC(=O)OCCC)c(=O)c3cc2c1=O
    ·	1	3%	-33	1.5
48) CCCS(=O)(=O)N1CCN(C2Cc3ccccc3C2)CC1
    2	·	5%	·	-0.5
49) Cc1ccc(/C=N\NC(=O)c2cncc(Br)c2)o1
    57	-5	-3%	-35	-3.2
50) Cc1ccccc1OCC(O)CN (centres undefined)
    2	-6	-6%	7	1.2
51) CCN1CC(CNCc2cn(-c3ccc(OC)cc3)nc2-c2ccccc2Cl)CC1=O (centres undefined)
    -9	-3	6%	·	7.3
52) Fc1cccc(NC(=S)NCC(c2cccnc2)N2CCOCC2)c1 (centres undefined)
    -6	-3	-1%	-26	-3.1
53) CC(=O)c1ccc(N2CCN(C(=O)c3ccc4ccccc4n3)CC2)cc1
    7	0	4%	·	-3.1
54) Cc1ccc(NC(=O)CCc2nc3ccccc3c(=O)[nH]2)cc1S(=O)(=O)N1CCOCC1
    -12	·	·	·	1.0
55) CN(C)c1nc(SCc2ccc(Cl)cc2)nc2c1CCCC2
    76	2	6%	-11	20
56) COc1cccc(/C=N/Nc2c(Cl)cncc2Cl)c1O
    2	·	·	·	0.2
57) O=S(=O)(N=S(N1CCCCC1)N1CCCCC1)c1ccccc1
    1	-2	-4%	-44	-1.1
58) CC(=O)C(C(C)=O)C(c1ccccc1)c1nc2ccccc2[nH]c1=O (centres undefined)
    2	·	·	·	0.2
59) COc1ccc2nc(NC(=O)CSCC(=O)Nc3cc(C)on3)sc2c1
    4	·	·	·	-2.1
60) COc1ccc2c(c1)CC1(CN2C)C(=O)NC(=O)N(c2ccc(C)cc2)C1=O (centres undefined)
    -2	5	4%	-23	-2.7

# Compound profiles (already shown):
# Shown for CCOC(=O)C1CCCN(C(=O)c2cn(C)c3ccc(S(=O)(=O)N4CCCC4)cc3c2=O)C1 (centres undefined) → Mtb betalactam: -7; Arbovirus inh: 6; Mtb growth: -2%; YopH inh: -26; RecA splice inh: ·
# Shown for CC(=O)c1c(C)[nH]c(=S)c(C#N)c1-c1ccc(F)cc1 → Mtb betalactam: -1; Arbovirus inh: ·; Mtb growth: 5%; YopH inh: ·; RecA splice inh: 5.1

# The list continues.
# Below each SMILES: Mtb betalactam	Arbovirus inh	Mtb growth	YopH inh	RecA splice inh
61) c1ccc(Nc2nc(-c3ccncc3)cs2)cc1
    71	25	6%	-24	1.9
62) Cc1cccc(-n2c3nc(=O)[nH]c(=O)c-3cc3c(C)nn(-c4ccccc4)c32)c1C
    1	7	3%	-18	-4.7
63) CC(=O)NC(C)c1nc2ccccc2n1CC(=O)NC(C)CCc1ccccc1 (centres undefined)
    -8	-2	0%	·	1.6
64) C(=N/N1CCN(c2ccccc2)CC1)/c1cccs1
    -6	-5	-5%	-32	-0.4
65) CNS(=O)(=O)c1cccc(C(=O)OC2CCOC2=O)c1 (centres undefined)
    3	·	·	·	-0.9
66) CN(C)CCC(O)c1ccccc1 (centres undefined)
    -17	·	-3%	·	1.2
67) Cc1ccc(OCc2nnc(SCC(=O)Nc3sc(C)c(C)c3C#N)n2C)cc1
    -5	4	-3%	-31	2.2
68) Cc1nc2ccccc2c(-c2ccccc2)c1C(=O)c1ccccc1
    6	1	4%	-15	0.6
69) O=C(COc1ccc2c(-c3ccccc3)cc(=O)oc2c1)NCC(O)c1ccccc1 (centres undefined)
    -3	·	·	·	-0.9
70) CN1/C(=C\C(=O)c2cccc(S(=O)(=O)N3CCCCC3)c2)C(C)(C)c2ccccc21
    6	10	8%	-37	-16
71) CC1=C(C(=O)OCc2ccccc2)C(c2ccc3c(c2)OCO3)NC(=O)N1CCCC(=O)O (centres undefined)
    -8	·	-10%	·	-0.3

# 23 compounds already listed, ordered by SMILES length, lowest first.
# Below each SMILES: Mtb betalactam	Arbovirus inh	Mtb growth	YopH inh	RecA splice inh
10) NC(=O)N/N=C/c1c(F)cccc1F
    3	7	-5%	-32	-2.2
3) O=C(Nc1cc(Cl)ncn1)c1ccccc1
    -5	·	·	·	0.4
61) c1ccc(Nc2nc(-c3ccncc3)cs2)cc1
    71	25	6%	-24	1.9
43) S=C(NCc1ccccc1)Nc1cccc2cnccc12
    -3	·	·	·	1.3
2) CC(Cc1ccccc1)NC(=O)c1cc2ccccc2o1 (centres undefined)
    1	·	·	·	2.3
56) COc1cccc(/C=N/Nc2c(Cl)cncc2Cl)c1O
    2	·	·	·	0.2
27) CCOc1ccc(C(=O)NCC(c2cccs2)N(C)C)cc1 (centres undefined)
    -3	-4	-1%	-31	0.4
65) CNS(=O)(=O)c1cccc(C(=O)OC2CCOC2=O)c1 (centres undefined)
    3	·	·	·	-0.9
57) O=S(=O)(N=S(N1CCCCC1)N1CCCCC1)c1ccccc1
    1	-2	-4%	-44	-1.1
68) Cc1nc2ccccc2c(-c2ccccc2)c1C(=O)c1ccccc1
    6	1	4%	-15	0.6
59) COc1ccc2nc(NC(=O)CSCC(=O)Nc3cc(C)on3)sc2c1
    4	·	·	·	-2.1
6) O=C(COCc1ccccc1)N[C@@H](Cc1ccc(O)cc1)C(=O)O
    -2	4	9%	·	-1.5
63) CC(=O)NC(C)c1nc2ccccc2n1CC(=O)NC(C)CCc1ccccc1 (centres undefined)
    -8	-2	0%	·	1.6
18) O=C(O)CCNc1ccc(NCCC(=O)O)c2c1C(=O)c1ccccc1C2=O
    -3	·	·	·	17
67) Cc1ccc(OCc2nnc(SCC(=O)Nc3sc(C)c(C)c3C#N)n2C)cc1
    -5	4	-3%	-31	2.2
13) CC1CCCCC1NC(=O)/C(C#N)=C/C=C/c1ccccc1[N+](=O)[O-] (centres undefined)
    10	-27	4%	·	12
60) COc1ccc2c(c1)CC1(CN2C)C(=O)NC(=O)N(c2ccc(C)cc2)C1=O (centres undefined)
    -2	5	4%	-23	-2.7
34) COc1ccc(NC(=O)CCC(=O)N/N=C/c2ccc([N+](=O)[O-])s2)cc1
    100	-14	?	34	-0.1
1) O=c1c2ccccc2nc(CSc2ncnc3nc[nH]c23)n1-c1ccc(Cl)c(Cl)c1
    -3	-1	8%	-43	0.1
30) Cc1cc(OC(=O)c2ccc(OC(C)C)cc2)c([N+](=O)[O-])c(=O)[nH]1
    2	·	·	·	-4.0
42) O=[N+]([O-])c1cc(/C=N/Nc2nc(N3CCOCC3)nc(N3CCOCC3)n2)ccc1Cl
    -1	1	-1%	-27	-2.0
41) Cc1ccc(S(=O)(=O)N2CCCCC2)cc1NC(=O)c1ccc2c(=O)n3c(nc2c1)CCCCC3
    9	-8	0%	-2	3.4
26) Cc1cn(-c2cc(C(=O)Nc3ccc(C)c(NC(=O)N4CCNC4=O)c3)cc(C(F)(F)F)c2)cn1
    -6	·	-15%	·	1.8
